Beta apoptosis: inhibitors of cytokine-induced beta cell apoptosis, primary screen, luminescence; INS-1E cytokine-induced death, ATP luminescence, 48 h; percent of positive-control rescue, neutral wells zero; protection from apoptosis, % (test concentration not listed); hit rate 0.8% among 300,000;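 active = all replicates at 75% or more, or half of them and the mean; inconclusive = half reach 75% but not the mean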;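 note: 0% = cytokine-treated negative control wells and 100% = positive control rescue; higher means more ATP so stronger rescue from cytokine killing; wells of about 40 µL received 100 nL stock; the first replicate is given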
A1 inh: caspase 3/7 activation in MEF A1-2A-BIM cells, primary screen, A1 inhibitor project, cell-based, luminescence, HTS | hit rate 0.066% among 330,000 | caspase activation, % (concentration not given with the values) | AID 2462, 2010 | Caspase-Glo 3/7 luminescence, 3 h; percent of clofoctol response, vehicle zero;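 active = over half of replicate activation scores above 10%, or exactly half above 10 with the replicate mean above 10; inconclusive = replicate mean below 10 yet half the replicates above 10; inactive = over half of replicates below 10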;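 note: wells of about 30 µL received 50 nL stock; many hits fall short of the cut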
T cruzi inh: inhibitors of intracellular T. cruzi growth, primary screen, luminescence, NIH3T3 host cells; T. cruzi beta-gal in NIH3T3, 90 h; hit rate 1.4% among 300,000; AID 1885, 2009; inhibition, % (no concentration beside the values);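 active = mean inhibition across valid replicates above about 55%, limit read from the data; inconclusive = mean below that limit but half or more replicates reach it; inactive = mean below it, under half of replicates reach it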;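 note: signal also drops with host cell toxicity which is not excluded here; 0% = plate median of DMSO wells and 100% = zero luminescence signal; higher percent means less beta-gal luminescence so fewer parasites; stock transfer was 50 nL into about 50 µL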
LANA-H2B inh: blockers of LANA interaction with H2A/H2B – biochemical, FP readout, HTS, primary screen; inhibition, % (concentration not given with the values); hit rate 0.6% among 320,000; cell-free LANA-H2A/H2B peptide, fluorescence polarization; AID 2629, 2010; in the data active = inhibition mostly above about 10%, no sharp cut-off; inactive = mostly below about 6.7%;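 note: stock transfer was 7.5 nL into about 10 µL; 0% = median of vehicle wells and 100% = median of positive control wells; one replicate is shown; the record names a cut of 25% in any replicate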
RanGTP-Imp inh: inhibitors of RanGTP-importin-beta interaction, primary screen, biochemical, FRET, CFP-Ran, YFP-importin-beta, homogeneous; cell-free CFP-Ran/YFP-importin-beta FRET ratio; AID 2216, 2009; inhibition, % (concentration not given with the values); hit rate 1.1% among 300,000; Ran GTPase (GTP-bound) - importin-beta complex;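 active = most replicates above 15%; inconclusive = exactly half above 15%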;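 note: 0% = DMSO wells and 100% = Ran loaded with GDP instead of GTP; wells of about 40 µL received 100 nL stock; the first replicate is given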
Calb FLC: C. albicans growth inhibition with fluconazole, primary screen, CaCi-2 strain, Alamar Blue fluorescence | C. albicans CaCi-2 (fluconazole-resistant clinical isolate) + fluconazole, 48 h | growth inhibition, % (no concentration beside the values) | hit rate 0.57% among 300,000;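 active = most replicates above 75%; inconclusive = exactly half above 75%; inactive = most below 75%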;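 note: all wells also contain fluconazole at 8 µg/ml as a sub-toxic cotreatment; 0% = median of DMSO wells and 100% = median of geldanamycin control wells; wells of about 8 µL received 7.5 nL stock; the first replicate is given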
Vif TR-FRET: inhibitors of Vif binding to APOBEC3G peptide, primary screen, biochemical, TR-FRET, GST-Vif 1-94, biotin-A3G peptide, dose response retest (AID 1117319) | TR-FRET GST-Vif / biotin-A3G peptide binding; higher % means a stronger effect; test concentration not given here; strong numbers were not always called active | hit rate 0.57% among 260,000 | Virion infectivity factor (Human immunodeficiency virus type 1 group M subtype B (isolate … | one-dose inhibition, %; IC50 in µM for titrated hits;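 active = above the screen mean plus three standard deviations and confirmed in dose response; inconclusive = results disagree or hit not tested in dose response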;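 note: Vif residues 1-94 fused to GST binding biotinylated APOBEC3G peptide 110-148; 0% = full assay without inhibitor and 100% = GST in place of GST-Vif; retest series ran down from 100 µM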
AF4-AF9 inh: inhibitors of AF4 peptide binding to AF9, primary screen, biochemical, AlphaScreen, biotin-AF4 peptide, FLAG-AF9, single point | Protein AF-9 (Homo sapiens), P42568 | inhibition, % at 10 µM | hit rate 0.47% among 350,000 | AID 651704, 2012;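 active = every replicate reaching a set inhibition limit, whatever the replicate mean, cut at about 25% in these data; inconclusive = mean inhibition reaches that limit but some replicates miss it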;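 note: 0% = plate neutral control median and 100% = total signal loss; the record names both 10 and 1 µM as test concentration; the first replicate is given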
Target sequence (P42568 whole entry, looked up): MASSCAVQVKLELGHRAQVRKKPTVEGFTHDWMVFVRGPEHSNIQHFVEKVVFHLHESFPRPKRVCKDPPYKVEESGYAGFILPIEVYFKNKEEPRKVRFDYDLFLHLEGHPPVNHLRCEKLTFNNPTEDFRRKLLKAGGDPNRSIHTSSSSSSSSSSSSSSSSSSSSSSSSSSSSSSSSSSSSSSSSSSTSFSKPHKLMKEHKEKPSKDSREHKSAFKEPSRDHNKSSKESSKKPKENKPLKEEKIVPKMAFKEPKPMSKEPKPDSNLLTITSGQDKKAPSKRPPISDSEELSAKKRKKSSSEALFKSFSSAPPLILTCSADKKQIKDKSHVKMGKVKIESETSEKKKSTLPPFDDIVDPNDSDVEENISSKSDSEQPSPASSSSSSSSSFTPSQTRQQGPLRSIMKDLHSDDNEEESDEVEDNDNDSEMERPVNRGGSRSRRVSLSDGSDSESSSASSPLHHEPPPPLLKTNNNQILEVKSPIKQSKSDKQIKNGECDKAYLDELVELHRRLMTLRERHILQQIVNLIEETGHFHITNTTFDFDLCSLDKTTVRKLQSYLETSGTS
The depositor's hits bear a star; ? = inconclusive; / = not tested or not shown.

cpd | molecule | Vif TR-FRET | Beta apoptosis | A1 inh | AF4-AF9 inh | LANA-H2B inh | T cruzi inh | RanGTP-Imp inh | Calb FLC
1 | CC(C)(C)C1CCc2c(sc(N)c2C(N)=O)C1 (stereo not drawn) | ? | -3 | -0.6 | / | 3.4 | 6 | ? | 6
2 | CC(=O)OCCNC(=O)Cn1cnc2c1c(=O)n(C)c(=O)n2C | -6% | -7 | 0.0 | / | -0.2 | 1 | 4.1 | -1
3 | O=C(N/N=C/c1ccsc1)c1ccccn1 | / | 2 | -5.9 | -1.8 | 4.0 | -2 | 2.1 | -19
4 | CSc1ccc(CN(C)C(=O)CSCC(=O)Nc2ccc(C)cc2)cc1 | 3% | 1 | -0.3 | 6.8 | 0.0 | 4 | 0.7 | 5
5 | O=C(COC(=O)c1cc(Br)ccc1O)c1ccc(F)cc1 | -35% | -6 | -0.7 | 0.8 | -0.6 | / | / | /
6 | O=C(CSc1nc(-c2ccc(Cl)cc2)cs1)Nc1cccc([N+](=O)[O-])c1 | ? | -6 | 2.8 | -1.9 | 5.7 | -8 | 2.1 | -5
7 | CC(C)(O)CC[C@H](OC(=O)c1ccccc1)[C@](C)(O)[C@H]1CC[C@@]2(O)C3=CC(=O)[C@@H]4C[C@@H](O)[C@H](O)C[C@]4(C)C3CC[C@]12C (stereo partly drawn) | 2% | -6 | 0.0 | -1.8 | -1.3 | -1 | 2.1 | -1
8 | Cc1ccc2oc(-c3ccccc3C(=O)O)cc(=O)c2c1 | 20% | -1 | 0.3 | / | 0.0 | -13 | 6.3 | 11
9 | CCC(=O)Nc1ccc(S(=O)(=O)Nc2cc(C)on2)cc1 | 1% | -2 | -0.3 | / | -2.0 | -12 | 2.6 | -10
10 | CC1=C(C(=O)OC(C)C)C2(O)C(=O)c3ccccc3C2(O)N1 (stereo not drawn) | / | -2 | 0.2 | / | 2.8 | -7 | 3.1 | 0
11 | CCCCC(CC)CNC(=O)Cn1c(=S)[nH]c2ncccc2c1=O (stereo not drawn) | 2% | 3 | 0.6 | / | 2.8 | -3 | -1.1 | -1
12 | COCCNC(=O)c1cc(-c2ccccc2OC)on1 | -4% | -8 | 1.3 | 1.3 | 1.9 | 0 | ? | -2
13 | Cc1cc(OCC(=O)N(C)Cc2ccccc2)ccc1Cl | / | 110* | 1.1 | -3.0 | 2.8 | 7 | -5.4 | -7
14 | CCCCNC(=S)NNC(=O)c1c(Cl)c(C)nn1C | 1% | / | 0.6 | -0.4 | 2.2 | -14 | 0.7 | -5
15 | CCN(CC)c1ccc(/C=C(\C#N)C(=O)NCc2ccccc2)cc1 | 8% | 3 | 0.4 | / | 1.2 | 1 | 109* | 10
16 | O=C(CC(c1ccccc1)C1CCCCC1=O)c1ccco1 (stereo not drawn) | -4% | -6 | 0.9 | / | 0.8 | -4 | 2.4 | -5
17 | CCN1CCN=C1Nc1ccccc1 | / | -5 | 1.7 | -1.4 | -6.7 | / | / | /
18 | CC12CCCCC1(O)[N+](=O)C1=C(CCCC1)N2[O-] (stereo not drawn) | ? | 0 | 0.2 | / | 0.5 | -2 | 0.5 | 4
19 | CC1CN(C(=O)Nc2ccc(F)cc2)C2(CCCCCC2)O1 (stereo not drawn) | 2% | 2 | 0.5 | -10 | 2.9 | -2 | 5.0 | 10
20 | CC(C)NC(=O)CSc1nnc2sc3ccccc3n12 | 5% | / | / | -0.6 | / | 14 | -20 | 19
21 | O=C(NCCN1CCOCC1)N1c2ccccc2Sc2ccccc21 | -3% | -3 | -0.1 | / | 2.4 | 0 | 3.2 | 0
22 | CCOc1ccccc1C(=O)NCC(=O)OCC(=O)N1C(C)CCCC1C (stereo not drawn) | 30% | 1 | -0.3 | / | 1.7 | -20 | -4.0 | 0
23 | O=C(NCC(c1cccs1)N1CCOCC1)c1ccc(Cl)c([N+](=O)[O-])c1 (stereo not drawn) | 15% | -4 | 2.5 | -57 | -0.4 | -7 | 1.7 | 7
24 | CCOC(=O)CNc1c(-c2ccc(OC)cc2)nc2ccc(Cl)cn12 | 0% | -7 | 0.3 | / | 1.5 | 5 | -43 | -9

Shown with each value named: part of the list above
[17] CCN1CCN=C1Nc1ccccc1
- Vif TR-FRET: /
- Beta apoptosis: -5
- A1 inh: 1.7
- AF4-AF9 inh: -1.4
- LANA-H2B inh: -6.7
- T cruzi inh: /
- RanGTP-Imp inh: /
- Calb FLC: /

[18] CC12CCCCC1(O)[N+](=O)C1=C(CCCC1)N2[O-] (stereo not drawn)
- Vif TR-FRET: ?
- Beta apoptosis: 0
- A1 inh: 0.2
- AF4-AF9 inh: /
- LANA-H2B inh: 0.5
- T cruzi inh: -2
- RanGTP-Imp inh: 0.5
- Calb FLC: 4

The list goes on.
cpd | molecule | Vif TR-FRET | Beta apoptosis | A1 inh | AF4-AF9 inh | LANA-H2B inh | T cruzi inh | RanGTP-Imp inh | Calb FLC
25 | COC(=O)C1=C(C)NC(=S)NC1c1ccc(OC(=O)c2ccco2)cc1 (stereo not drawn) | -3% | 8 | 0.3 | -1.4 | 3.1 | 6 | -0.7 | 8
26 | O=C(Nc1nnc(C2CCCC2)s1)C1CCN(S(=O)(=O)c2ccc(Cl)cc2)CC1 | 14% | / | 0.0 | 6.4 | -2.1 | -7 | 0.8 | -8
27 | Cc1cccc(CN2CCc3c([nH]c4ccccc34)C2C(C)(C)C)n1 (stereo not drawn) | / | / | 0.9 | 8.9 | -1.1 | 29 | ? | 5
28 | CC(NC(=S)Nc1ccccc1)C(c1cccs1)N1CCOCC1 (stereo not drawn) | -11% | 6 | 1.1 | -5.1 | 3.7 | 4 | -4.0 | 26
29 | CCCCCCCCCNC(=O)[C@H](NC(=O)COc1ccccc1)[C@@H]1NC(C(=O)OC)C(C)(C)S1 (stereo partly drawn) | / | -1 | -0.9 | / | -4.4 | -21 | -2.8 | 12
30 | COC(=O)CSc1nnc(CCc2ccccc2)n1C | / | 8 | -0.2 | -0.3 | 11* | -8 | 4.4 | 3
31 | COc1ccc(CCN(C)C(=O)C(CCSC)NC(=O)c2ccco2)cc1OC (stereo not drawn) | -4% | -8 | 2.1 | 0.2 | -9.0 | / | / | /
32 | CC(C(=O)NCC1CCCO1)N(C(=O)c1snc(C(N)=O)c1N)c1ccccc1 (stereo not drawn) | -2% | 0 | 1.9 | / | 3.7 | -6 | 4.0 | 18
33 | CSC1=NCCN1C(=O)Cc1ccc(-c2ccccc2)cc1 | 7% | -2 | -4.4 | 0.8 | -0.7 | -1 | -1.6 | -9
34 | Cc1cc(NC2CCCCC2)nc(-c2ccccc2O)n1 | 2% | -2 | 0.7 | / | 3.0 | 9 | 2.0 | -9
35 | O=C(NC1CCCN(Cc2ccc(Cl)cc2)C1)c1cccc(N2CCCC2=O)c1 (stereo not drawn) | -8% | 1 | 0.9 | 1.0 | 0.9 | 29 | 6.0 | -6
36 | CCOC(=O)CC1C(=O)NCCN1C(=O)c1ccc(Cl)cc1 (stereo not drawn) | -2% | / | 0.0 | -1.3 | -0.9 | 4 | 2.5 | -17
37 | Cc1ccc(C(=O)CC2(O)C(=O)N(C)c3ccccc32)s1 (stereo not drawn) | 20% | 1 | 0.7 | 0.8 | -3.5 | -23 | 0.1 | -13
38 | Cc1onc(-c2ccccc2)c1C(=O)N1CCN(c2ccccc2)CC1 | / | 1 | -1.1 | 3.3 | -2.5 | 12 | -5.1 | 2
39 | CCNc1nc(Oc2ccc(C(=O)OC)cc2)nc(N(C)C)n1 | 22% | -3 | 1.1 | / | -1.4 | -5 | 2.1 | 2
40 | CCN(CC)C(=O)Cn1cc(C(=O)C(=O)N2CCN(c3ccccc3)CC2)c2ccccc21 | / | -3 | -0.2 | 5.0 | -0.3 | 6 | 2.8 | -13
41 | OCCNc1nc2ccccc2n1-c1ccccc1 | 26% | 1 | 0.6 | / | 6.6 | / | -0.1 | -12
42 | Cc1ccc(S(=O)(=O)N(C)C)cc1NC(=O)CN1c2cccc3cccc(c23)S1(=O)=O | 6% | 0 | -1.0 | -2.5 | 1.6 | / | / | /
43 | Cc1c(C(=O)O)sc(=S)n1-c1ccc(Cl)cc1 | 0% | -9 | 0.4 | / | 1.5 | -16 | 0.5 | 3
44 | CCN(CC)c1ccc(CNCc2cccs2)cc1 | / | 2 | 0.1 | 19 | -0.9 | 1 | -3.1 | -31
45 | CC(c1ccon1)N(C)C(=O)CCc1nnc(Cc2ccc(-c3ccccc3)cc2)o1 (stereo not drawn) | -1% | -3 | 0.7 | -6.7 | -0.5 | 0 | 3.1 | -3
46 | COc1ccc(S(=O)(=O)NCCc2cn3nc(C)c(C)nc3n2)cc1F | 4% | -2 | -0.1 | 2.0 | 4.1 | -2 | 17* | -5
47 | CC(C)C(=O)Nc1cccc(C(=O)NCc2ccc3c(c2)OCO3)c1 | 2% | 3 | 0.2 | 11 | -3.8 | -14 | -2.1 | -5
48 | COc1ccccc1-c1sc2cc3c(cc2c1C#Cc1ccccn1)OCO3 | / | -4 | 0.2 | 7.3 | -15 | / | / | /
49 | CCOc1ccc2nc(NC(=O)CN3CCC(n4nnc5cc(F)ccc54)CC3)sc2c1 | -5% | -3 | 0.4 | / | 0.6 | 20 | 0.2 | 37
50 | CCn1c(O)c(/C=C2\C=Nc3ccccc32)sc1=Nc1ccc(C)cc1 | -1% | -12 | -0.4 | 2.5 | 3.4 | 19 | 2.5 | 1
51 | Cc1cccc(CC(=O)Nc2ccc(C(=O)N3CCCCC3)cc2)c1 | / | / | -1.9 | -2.8 | -0.7 | -11 | -2.6 | 1
52 | CCc1cccc(C)c1NC(=O)COC(=O)c1cc([N+](=O)[O-])ccc1N1CCOCC1 | -4% | -4 | 0.7 | -17 | -2.3 | 8 | ? | 10
53 | CCc1ccc(CN2CCC(n3nccc3NC(=O)c3ccccc3)CC2)o1 | / | 2 | 0.7 | 0.9 | -1.8 | -2 | ? | 3
54 | O=C(CCn1cnc2ccccc2c1=O)Nc1ccc(S(=O)(=O)N2CCCC2)cc1 | -1% | 4 | 0.3 | / | -1.2 | 4 | 7.7 | -2
55 | Cc1ccc(N2C(=O)c3cccc4c(N)ccc(c34)C2=O)c2cccnc12 | 2% | 23 | 0.3 | / | -4.1 | 19 | -409 | 1
56 | O=c1c2c(O)cc(O)cc2oc2ccc(O)c(O[C@@H]3O[C@H](CO)[C@@H](O)[C@H](O)[C@H]3O[C@H]3O[C@H](CO)[C@@H](O)[C@H](O)[C@H]3O)c12 | / | 0 | -0.1 | 0.1 | 2.7 | / | / | /
57 | COc1ccc(N(CC(=O)NCCSCc2cccc(Cl)c2)S(C)(=O)=O)cc1 | / | -2 | 0.6 | 1.1 | 11 | 1 | 4.1 | 2
58 | O=C(Nc1ccc2nccnc2c1)c1ccco1 | -2% | 2 | 0.2 | -1.7 | 2.3 | -13 | 5.5 | -6
